Bioassay records (PubChem)
HSD17B inhib: blocks hydroxysteroid 17-beta dehydrogenase activity; Q99714; recombinant HSD17B10, NADH fluorescence kinetic; many of its hits are not listed in these tables; Potency, µM (top dose mostly 57.1 µM), without a hit: top-dose activity change, negative = inhibition, usual class: inhibitors; actives 7.6% (n = 75,000); AID 893; active means well fitted inhibition curve with a large enough effect; inconclusive means small, poorly fitted or top-dose-only effect; inactive means no such curve, though single readings can be large or run the other way;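 further: the protocol describes HADH2 (HSD17B10) and not the HSD17B4 of the title; nearly all actives have a fitted effect of over 70% in size; most hits overshoot -100% by far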
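Activity followed as NADH fluorescence increase (ex 360, em 450 nm) every 30 seconds for 4 min, using final 90 uM beta-hydroxybutyryl CoA and 1 mM NAD+. Recombinant His-tagged enzyme, 20 nM, pH 9.0 Tris buffer, 15 min compound preincubation.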
* marks the source's active call; other numbers are inactive results; ? = inconclusive; & = joins results of further samples; [ ] = another dose, or the depositor's remark. On the % scale 0 is the no-effect control and ±100 the full control effect; potency means the concentration at half of the fitted maximal effect. Not all compounds are listed; rates above refer to the full screens.

SMILES	HSD17B inhib
O=C(c1ccc(Br)cc1)N1CCN(S(=O)(=O)c2ccccc2)CC1	1%
O=C(Nc1ccccc1N1CCN(C(=O)c2ccc(Cl)cc2)CC1)c1cc2ccccc2o1	7%
CCC(=O)N(Cc1ccc(S(N)(=O)=O)cc1)C1CC(=O)N(c2ccc(OC)cc2)C1=O (stereo not drawn)	1%
CCOc1ccc2[nH]c(=O)c(CN(Cc3ccco3)C(CC)c3nnnn3Cc3ccccc3)cc2c1 (stereo not drawn)	32µM*
O=C(c1cc(C(F)(F)F)cc(C(F)(F)F)c1)N1CCC[C@@]2(CCN(c3ncccn3)C2)C1	-8%
O=C(O)CC(C(=O)O)C(CC(=O)O)C(=O)O (stereo not drawn)	1%
O=C(NCN1C(=O)C2C3C=CC(C3)C2C1=O)Nc1nccs1 (stereo not drawn)	-2%
O=C(c1csc2ccccc12)N1CCN(c2ccccn2)CC1	?
Cn1nnc(NC(=O)C(c2ccccc2)c2ccccc2)n1	-23%
Cc1occc1-c1nnc(SCC(=O)Nc2ccc(F)cc2)n1Cc1ccccc1	-2%
Cc1nn(Cc2ccccc2)c(N)c1-c1ccccc1	-3%
COc1ccc(CSc2nnc(N)s2)cc1F	0%
CC(=O)c1ccccn1	-6%
Cc1ccc(C)c(N(CC(=O)NC2CCCC2)C(=O)CCCC(=O)Nc2ccccn2)c1	9%
COc1ccc(-n2nc(C(=O)N3CCN(Cc4ccc5c(c4)OCO5)CC3)c3ccccc3c2=O)cc1	-4%
CCOC(=O)C(CC)Sc1nc(-c2ccc(OC)cc2)nc2c1c(=O)n(C)c(=O)n2C (stereo not drawn)	?
CC(C)c1ccccc1NC(=O)CCCC(=O)O	5%
Cc1noc(C)c1CSc1ccccc1C(=O)Nc1nccs1	0%
O=C(Nc1ccc(Cl)cc1C(=O)NCc1cccnc1)c1ccco1	?
O=C(c1cnccn1)N1CCc2ccccc21	-13%
O=C(NCCSCc1c(F)cccc1Cl)c1ccco1	0%
Cc1cc(/C=N/n2cnnc2)c(C)n1-c1cccc(C(=O)O)c1	-2%
Cc1cccc2cc(COC(=O)c3ccccn3)c(=O)[nH]c12	6%
O=C(CSc1nnc(-c2cnccn2)n1Cc1ccco1)c1ccc(Cl)c(Cl)c1	-24%
CN1CCN(C(CNS(=O)(=O)c2ccc(F)cc2)c2cccnc2)CC1 (stereo not drawn)	1%
O=C(Cc1cn2ccsc2n1)NCc1ccccc1	-5%
O=C1CC(c2cccnc2)c2cc3c(cc2N1)OCCO3 (stereo not drawn)	2%
Nc1cccc(S(=O)(=O)O)c1	?
CC1(C)CN=C(NC2CCCCC2)S1	1%
COc1cccc(-c2cc(C(=O)Nc3ccc(OC)c(OC)c3)no2)c1	11%
CN(C(=O)c1ccncc1)c1nnc(-c2cnccn2)s1	12%
Cc1cccc(C)c1NC(=O)C1CCCNC1 (stereo not drawn)	7%
CCn1c(=O)c(C(=O)Nc2cnccn2)c(O)c2ccccc21	6%
Cn1c(=O)c(=O)n(C)c2cc(S(=O)(=O)N3CCCCC3)ccc21	?
COc1cc(-c2csc(N3CCOCC3)n2)cc(OC)c1OC	2%
CCC(=O)Nc1cc(NC(=O)CSc2nnc(C(C)C)n2CC)ccc1C	1%

Two entries from above, with each value named.
COc1cc(-c2csc(N3CCOCC3)n2)cc(OC)c1OC
  HSD17B inhib: 2%

CCC(=O)Nc1cc(NC(=O)CSc2nnc(C(C)C)n2CC)ccc1C
  HSD17B inhib: 1%

Part of the list above, with each value named:
O=C(Cc1cn2ccsc2n1)NCc1ccccc1
  HSD17B inhib: -5%
O=C1CC(c2cccnc2)c2cc3c(cc2N1)OCCO3 (stereo not drawn)
  HSD17B inhib: 2%

Additional structures
SMILES	HSD17B inhib
c1ccc(CN2CCC(N3CCN(Cc4ccc5c(c4)OCO5)CC3)CC2)cc1	-2%
Cc1ccc(SCC(=O)N(Cc2nc(-c3ccccc3)no2)C(C)C)cc1	-15%
O=c1cnn([C@@H]2O[C@H](CO)[C@@H](O)[C@H]2O)c(=O)[nH]1	3%
COc1ccc(NC(=O)N2CC[C@@]3(CCCN(C(=O)c4cccc(F)c4)C3)C2)cc1	0%
CCOC(=O)CCc1c(C)n(CC)c2ncnn2c1=O	6%
CC1CCc2sc3c(c2C1)c1ncnn1c(=O)n3CC(=O)c1ccc(Br)cc1 (stereo not drawn)	8%
COc1ccc(S(=O)(=O)N2CCN(Cc3ccc(Cl)cc3)CC2)cc1	-2%
CC(NC(=O)NC1CCCCC1)C(c1cccs1)N1CCOCC1 (stereo not drawn)	11%
CCOC(=O)C1CCN(c2c(Nc3ccc4c(c3)OCCO4)c(=O)c2=O)CC1	-9%
O=C(NS(=O)(=O)c1ccc2c(c1)OCCO2)c1ccccc1	-3%
Cc1cc(=O)oc2ccc(OCC(=O)N(Cc3ccc(F)cc3)Cc3ccco3)cc12	0%
CCOC(=O)C1C2C=CC3(CN(c4cccc(Cl)c4)C(=O)C13)O2 (stereo not drawn)	0%
O=C(CSc1nc(Nc2ccccc2)nc(N2CCOCC2)n1)Nc1ccccc1Cl	-8%
O=C(CCSCCC(=O)NCC1CCCO1)NCC1CCCO1 (stereo not drawn)	-16%
Cc1nc(NC2=NCN(Cc3ccco3)CN2)nc2ccccc12	7%
CC(C)CN(C#N)c1nc(N2CCOCC2)nc(N2CCOCC2)n1	3%
Cc1ccc(-c2cc(C(=O)Nc3cc(C)on3)c3ccccc3n2)c(C)c1	25µM*
COc1ccc(-c2cn3cc(C)ccc3n2)cc1OC	32µM*
Cc1cc(N2CCCCC2)nc2ccc(Cc3ccc4nc(N5CCCCC5)cc(C)c4c3)cc12	3.2µM*
CCOc1ccc(N2CC(=O)SC2=S)cc1	-4%
CCOC(=O)N1CCN(c2ccc(S(=O)(=O)N(Cc3ccccc3)Cc3ccccc3)cn2)CC1	25µM*
CNC1C(O)C(O)C(CO)O[C@H]1OC1C(O[C@@H]2C(O)C(O)[C@@H](N=C(N)N)C(O)C2N=C(N)N)OC(C)[C@]1(O)C=O (stereo partly drawn)	2%
CCOC(=O)C1CCCN(C(=O)CCCOc2cc(=O)n(C)c3ccccc23)C1 (stereo not drawn)	-5%
CC1(C)CC(=O)C(C=NC2CCCCC2)=C(O)C1	-3%
COc1ccc(CCNC(=O)C2CCN(S(=O)(=O)N3CC(C)CC(C)C3)CC2)cc1OC (stereo not drawn)	7%
Cc1nc(-n2cc(F)c(=O)[nH]c2=O)c2nc(C)oc2n1	6%
CCOc1ccc(NC(=O)CN(C)CC(=O)Nc2ccccc2C#N)cc1OCC	6%
COc1cccc(-c2cc(C(=O)Nc3ccccc3SC)no2)c1	96%[activator]
Cc1ccc(CNc2ncc(-c3ccc4c(c3)OCO4)n2C)cc1	?
CCC(c1nnnn1CCc1ccccc1)N(Cc1ccco1)Cc1cc2cccc(C)c2[nH]c1=O (stereo not drawn)	-9%
C=CCOc1cccc(C2/C(=C(\O)c3ccc(F)cc3)C(=O)C(=O)N2CCN(C)C)c1 (stereo not drawn)	0%
Cc1nc2cnc(N3CCOCC3)nc2n(Cc2ccc(F)cc2)c1=O	-13%
CCC(C)(C(=O)NC1CCCCC1)N(Cc1ccco1)C(=O)c1cnccn1 (stereo not drawn)	-4%
O=C(Nc1cccc(F)c1)N1CCCC2(CCN(C(=O)c3csnn3)CC2)C1	8%
Cc1cccc(CNc2ccnc(-c3ccccc3CN(C)C)n2)c1	4%
CCOc1ccccc1N(CC(=O)NC(C)(C)C)C(=O)Cn1nnc(-c2ccc(C)o2)n1	5%

In another format: entries from further up.
> O=C(Nc1cccc(F)c1)N1CCCC2(CCN(C(=O)c3csnn3)CC2)C1
  HSD17B inhib: 8%
> Cc1cccc(CNc2ccnc(-c3ccccc3CN(C)C)n2)c1
  HSD17B inhib: 4%

Later entries
SMILES	HSD17B inhib
CN(C)CCNC(=O)Cn1nc(C(F)F)cc1C1CC1	2%
Cc1cc(O)cc(O)c1C(=O)O	-6%
CCC(C)(C(=O)NC1CCCC1)N(C(=O)c1cnccn1)c1ccccc1 (stereo not drawn)	3%
CC(Cc1ccc(O)c(O)c1)C(C)Cc1ccc(O)c(O)c1 (stereo not drawn)	7.9µM*
Cc1ccc(N(CC(=O)Nc2cccc(C)c2)S(=O)(=O)c2cccc3nonc23)cc1	8%
COC(=O)c1ccc(Cn2cnc3ccccc3c2=O)cc1	10%
COCCNC(=O)NC(=O)COC(=O)Cc1ccc2c(c1)OCCO2	1%
O=C(O)[C@H]1CCCN(CCC=C(c2ccccc2)c2ccccc2)C1	-2%&-2%
NC(=O)CSc1nnc(Cc2ccc3c(c2)OCO3)n1C1CCCCC1	9%
COc1cc(OC)c(C2N(c3ccc(Cl)c(Cl)c3)C(=O)C3CCCN32)cc1OC (stereo not drawn)	4%
N#CCCN1CCN(Cn2c3ccccc3c3ccccc32)CC1	0%
Cc1[nH]c(=O)c(C#N)c(C)c1Br	-16%
Cn1c(=S)c2[nH]c(SCCN3C(=O)c4ccccc4C3=O)nc2n(C)c1=O	8%[11.4 µM]
CCn1cc(C(=O)OCC(=O)Nc2ccc(S(=O)(=O)N3CCCC3)cc2)c(=O)c2ccc(C)nc21	-1%
Cn1c(CSc2nnc(SCc3ccccc3)s2)nc2ccccc21	-8%
CCCN(CCC)CCNC(=O)c1cc2c(C)nc3ccccc3c2o1	-26%
COc1cccc(NC(=O)c2nnn(Cc3ccc(Br)cc3F)c2N)c1	-21%
CCOC(=O)[C@]1(CC(=O)O)CCCC1=O	2%[11.4 µM]
O=C1c2ccccc2C(=O)N1CCCC(=O)N1CCCc2ccccc21	-4%
CCCCNC(=O)CSc1nc2cc3c(cc2c(=O)n1CCCN(CC)CC)OCO3	4%
CCN1/C(=C/C(=O)c2ccco2)Sc2ccccc21	?
CCS(=O)(=O)N1Cc2ccccc2CC1C(=O)N1CCN(c2cccc(C)c2C)CC1 (stereo not drawn)	-4%
O=C(Nc1ccc(N2CCN(C(=O)c3ccco3)CC2)c(Cl)c1)c1cc2ccccc2o1	?
COc1ccc(Oc2ncc3ncc(=O)n(C4CC4)c3n2)cc1	2%
O=C(Nc1ccc2c(c1)OCO2)c1ccccc1SCC(=O)N1CCCC1	6%
COC(=O)CN1C(=O)C2(C(C#N)=C(N)Oc3cc(C)oc(=O)c32)c2ccccc21 (stereo not drawn)	13%
COc1ccc(Cl)cc1NC(=O)CN(C(=O)c1ccco1)C1CCCCC1	2%
COCCCNC(=O)c1ccccc1Oc1ccccc1	-2%
Cc1cccc(NC(=O)CCN2C(=O)c3ccccc3C2=O)n1	-6%
O=C(NC1(C(F)(F)F)N=C2SCCN2C1=O)c1ccco1 (stereo not drawn)	1%
FC(F)(F)c1cc(-c2ccco2)nc(NCc2cccs2)n1	25µM*
CCN(CCCNC(=O)C1CCN(S(=O)(=O)N2CCOCC2)CC1)c1cccc(C)c1	-1%
Cn1c(C(=O)NCc2cccnc2)cc2sccc21	6%
CC1CN(C(=O)CCn2c(=O)oc3ccccc32)CC(C)O1 (stereo not drawn)	4%
CCCCN(CCCNC(=O)C1CCN(S(=O)(=O)N2CCOCC2)CC1)c1ccccc1	-7%
COc1cc(-c2ccccc2)nc(N)n1	7%
CCS(=O)(=O)N1CCCC(c2nc(-c3cccc(OC)c3)no2)C1 (stereo not drawn)	-3%
O=C(CSc1n[nH]c(-c2ccccc2)n1)NC(=O)NCc1ccco1	-29%
CCOc1cc(C(=O)Nc2ccccc2N2CCN(S(C)(=O)=O)CC2)cc(OCC)c1OCC	?
O=S(=O)(NC1CCCC1)c1ccc(Br)s1	6%
O=C(COc1cccc(-n2cnnn2)c1)NCCC1=CCCCC1	-5%
O=C(c1cnccn1)N1CCC2(CCCN(Cc3ccccc3)C2)CC1	-7%
O=S(=O)(c1ccc(Br)s1)N1CCN(c2ccccn2)CC1	-8%
CCN(CC)C(=O)N1c2ccccc2CC(N(CC)CC)c2ccccc21 (stereo not drawn)	2%
Cc1cc(Oc2ccccc2)nc(-c2ccccc2O)n1	0%
O=C(CSCCO)Nc1nccs1	5%
CC1CCc2c(C(=O)NCCN3CCOCC3)csc2C1 (stereo not drawn)	-3%
C/C=C(\C)CN1CCN(c2ccccc2F)CC1	3%
Cc1nc2sc(C(c3ccco3)N3CCC(Cc4ccccc4)CC3)c(O)n2n1 (stereo not drawn)	7%
CCOc1ccccc1-n1c(SCC(=O)Nc2nccs2)nnc1-c1ccoc1C	-1%
CS(=O)(=O)N1CCC2(CCN(C(c3ccccc3)c3ccccc3)CC2)CC1	5%
COc1ccc(CCNC(=O)Cn2nnc(-c3ccc(N4CCOCC4)cc3)n2)cc1OC	-14%
COc1ccc(NC(C)c2cc(Cl)ccc2O)cc1 (stereo not drawn)	-8%
O=C(CCn1c(=O)oc2ccccc21)NC1=NCCS1	5%
COc1ccc(N2CCN(C(=O)CN(c3ccc(Br)cc3)S(C)(=O)=O)CC2)cc1	7%
